Screening data deposited in PubChem by ICCB-Longwood Screening Facility, Harvard Medical School.
fixLJ activator: B. multivorans fixK reporter activation; z-score (no concentration beside the values); AID 1918990; 29,000 compounds, 0.3% hits; B. multivorans fixK-promoter GFP reporter, 18 h; stronger effect = higher value;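 active = replicate mean overnight rise in green fluorescent reporter signal, 3 or more SD over negative controls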;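 note: score is relative to vehicle wells of the plate; 300 nL library stock went into each well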
Numbers without * were called inactive. These rows are one share of the data; the hit share may differ from the screen's.

Start of the listing, in advance (six entries):
SMILES	fixLJ activator
CC(C)c1nnc2n1CCN(C(=O)CN1CCN(c3ncccn3)CC1)CC2	0.11
Cc1ccc(C(=O)c2oc3ccccc3c2NC(=O)COc2ccc(Cl)c(C)c2)cc1	-0.46
CCOC(=O)N1CCc2c(sc3c2c(=O)n(Cc2ccccc2)c(=O)n3CC(=O)Nc2ccc(C)cc2C)C1	-0.2
Cc1cc(C)c(NC(=O)C(C)n2nnc3sc(-c4ccccc4)cc3c2=O)c(C)c1 (stereo not drawn)	1.6
CCC(=O)c1ccc(-c2cccc(C(=O)NCCNC(C)=O)c2)cc1	-0.07
O=C(c1ccnc(N2CCC3C(C2)OCc2cnnn23)c1)N1CCCCC1 (stereo not drawn)	-1.92

The list itself, from the start:
SMILES	fixLJ activator
CC(C)c1nnc2n1CCN(C(=O)CN1CCN(c3ncccn3)CC1)CC2	0.11
Cc1ccc(C(=O)c2oc3ccccc3c2NC(=O)COc2ccc(Cl)c(C)c2)cc1	-0.46
CCOC(=O)N1CCc2c(sc3c2c(=O)n(Cc2ccccc2)c(=O)n3CC(=O)Nc2ccc(C)cc2C)C1	-0.2
Cc1cc(C)c(NC(=O)C(C)n2nnc3sc(-c4ccccc4)cc3c2=O)c(C)c1 (stereo not drawn)	1.6
CCC(=O)c1ccc(-c2cccc(C(=O)NCCNC(C)=O)c2)cc1	-0.07
O=C(c1ccnc(N2CCC3C(C2)OCc2cnnn23)c1)N1CCCCC1 (stereo not drawn)	-1.92
Cc1ccc(Nc2c(-c3cccc(Cl)c3)nc3cccc(C)n23)cc1	1.38
CCOC(=O)c1ccn(-c2nc(-c3cccc(OC)c3)cc(C(F)(F)F)n2)n1	1.01
Cc1cccc(C(=O)Nc2ccc3oc(-c4cccc5c(Br)cccc45)nc3c2)c1	0.72
O=C(CCCc1cn[nH]c1)N1CC(O)C(Cc2ccnc3ccccc23)C1 (stereo not drawn)	0.11
CCc1nn2c(=O)c(S(=O)(=O)Nc3cccc(F)c3)c(C)nc2s1	-0.62
CN(Cc1ccc(C(C)(C)C)cc1)Cc1cccc2ccccc12	-0.62
COc1ccc(CN(C(=O)c2ccc(OCC(C)C)cc2)C2CCS(=O)(=O)C2)cc1 (stereo not drawn)	-2.25
CC(C)OCCCNC(=O)Cn1c(-c2cccs2)cc2cc(F)ccc21	0.45
CCOc1ccccc1NC(=O)Cn1c(=O)n(-c2cccc(C)c2)c(=O)c2c1c1cc(OC)ccc1n2C	-0.4
CN(CCCN1CCCC1)Cc1nnc(C2CC(N)C2)n1C1CC1 (stereo not drawn)	1.03
Cc1nn(-c2ccccc2)c(OC(=O)c2ccc(Br)cc2)c1S(=O)(=O)c1ccccc1	0.65
CC(C)Cn1c(=O)c2ccccc2n2c(CCC(=O)N3CCN(c4ccccc4F)CC3)nnc12	0.39
CCOc1ccc(S(=O)(=O)N(CC(=O)NCCc2ccc(OC)c(OC)c2)c2ccccc2)cc1	-0.65
COc1ccccc1CN1CC(C(=O)Nc2nnc3nc(C)ccn23)CC1=O (stereo not drawn)	-0.42
CCC1CCc2nc3sc(C(=O)Nc4cccc(F)c4)c(N)c3cc2C1 (stereo not drawn)	-2.45
COCc1ccc(C(=O)N2C[C@H]3COCC[C@@]3(O)[C@@H]3COCC[C@H]32)s1	1.21
COc1cccc2c1C1(CCN(C(=O)C3CCCN(C(N)=O)C3)CC1)OCC2 (stereo not drawn)	-0.32
COc1ccc(CNC(=O)CSc2c3c(nc4ccc(Cl)cc24)CCCC3)cc1	-0.98
O=C(Cn1ncc2ccsc2c1=O)N1CCN(c2ccc(Cl)cc2)CC1	0.03
CCc1c(C)nn(CC(=O)NCCc2nc(C)cc(C(F)(F)F)n2)c1C	-1.66
Cc1ccc(Cn2ccc(NC(=O)c3cc(-c4ccc(Cl)c(Cl)c4)on3)n2)cc1	-1.36
Cc1cccc(NC(=O)Cn2c(=O)oc3cc(S(=O)(=O)N4CCCCCC4)ccc32)c1	-2.91
Cc1ccc2cccc(NC(=O)c3ccc(-c4cccc([N+](=O)[O-])c4)o3)c2n1	-2.2
Fc1ccccc1-c1cc(NCCC2CCCCN2)n2nccc2n1 (stereo not drawn)	-0.06
Cc1ccc(SC(C)C(=O)NCc2nnc3ccccn23)cc1 (stereo not drawn)	-1.46
CCCCN(C)CCNC(=O)c1cc2c(=O)n(C)c3ccccc3c2n1C	-0.87
Cc1cccc(CN2C(=O)c3ccccc3S(=O)(=O)c3ccc(C(=O)NC4CCCCC4)cc32)c1	-0.19
COc1ccc(NC(=O)Cn2c(=O)n(-c3cccc(C)c3)c(=O)c3c2c2cc(C)ccc2n3C)cc1OC	-0.57
O=C(COC(=O)c1cc(-c2ccccc2)nc2c(Cl)cccc12)c1ccc(F)cc1	0.08
Cc1cc2oc(C(=O)Nc3c(C(=O)Nc4ccccc4)oc4ccccc34)cc(=O)c2cc1C	1.71
CC(=O)c1ccc(NC(=O)c2cc3sccc3n2Cc2ccc(Cl)cc2)cc1	0.41
CCc1ccc(Nc2sc(C(=O)c3ccccc3)c(N)c2S(C)(=O)=O)cc1	-1.88
CCOC(=O)c1cc(NC(=O)c2ccc(OC)cc2)c(=O)n2c1oc1ccc(Cl)cc12	-1.48
COc1ccc(N2CCN(C(=O)CCc3c(C)nc4c(-c5ccccc5)c(C)nn4c3C)CC2)cc1	-0.08
CCOc1ccccc1C1CC(=O)NC(C)=C1C(=O)OC1CCCCCC1 (stereo not drawn)	-0.68
CC1CCc2c(sc(NC(=O)COc3ccccc3C(C)(C)C)c2C#N)C1 (stereo not drawn)	-0.68
Cc1ccccc1-n1cc(CN(C)C(=O)c2cc(O)cc(OCC3CC3)c2)cn1	-0.93
COC(=O)c1nnn(CC(=O)NC(=O)Nc2ccccc2F)c1C(=O)OC	-1.25
CCn1c(N2CC(N)C(C3CC3)C2)nc2cc(C(=O)O)cnc21 (stereo not drawn)	1.38
O=C1CN(C(=O)COc2ccc(Cl)cc2)C(c2ccccc2)c2cc(Br)ccc2N1 (stereo not drawn)	-1.99
COCC(=O)N1CCOc2c(O)cc(-c3ccc(C)cc3)cc2C1	-1.5
CCCN(Cc1cc2cccc(C)c2[nH]c1=O)C(=O)c1cccc(Cl)c1	-1.33
CO[C@@]12CCC(Oc3ccccn3)CC1N(C(=O)CCn1cncn1)CC2 (stereo partly drawn)	1.71
CCN(CCOC)C(=O)c1cc(C)nc2cc(OC)ccc12	-0.79
O=C1CN(CC(=O)N2CC(O)C(Cc3ccnc4ccccc34)C2)C(=O)N1 (stereo not drawn)	-0.49
COC(=O)c1cccnc1-n1c(=O)c2cccnc2n(CC(=O)Nc2cccc(C)c2)c1=O	2.02
COc1cccc(Cn2nnc(C(=O)NCc3ccc(Cl)cc3Cl)c2N)c1	-0.12
CCOc1ccc(CNC(=O)C2CCN(c3nnc(-n4cccc4CNc4ccc(C)cc4)s3)CC2)cc1OC	-0.22
CCN(CC)c1ccc(C(=O)N2CC3c4ccccc4OC[C@]3(CO)C2)cc1 (stereo partly drawn)	-1.07
CC(C)(O)CCc1cccc(C(=O)NC2COCC2N2CCOCC2)c1 (stereo not drawn)	-1.67
CC(=O)N1CCc2cc(Br)cc(S(=O)(=O)CCC(=O)N3CCN(c4ccccc4Cl)CC3)c21	-0.07
CC(C)(O)CCc1ccc(C(=O)NC2COc3ccccc32)cc1 (stereo not drawn)	0.64
O=C(c1ccc(-c2noc(C3CC3)n2)cc1)N1CCCC(c2ncc[nH]2)C1 (stereo not drawn)	-2.44
CCOC(=O)c1cn(CC(=O)Nc2ccc(OC)cc2OC)nn1	0.02
Next section
SMILES	fixLJ activator
CCOC(=O)c1c(-c2ccccc2)oc2ccc(N(C(C)=O)S(=O)(=O)c3ccc(C)cc3)cc12	-0.83
CCCCn1ncc(C)c1NC(=O)c1cc(-c2ccccc2)nn1C	-0.33
COc1cccc(-c2cn[nH]c2C2CCN(C(=O)C3CCNC3)CC2)c1 (stereo not drawn)	0.07
O=C(NCC(c1ccccn1)N1CCOCC1)c1cn[nH]c1C1CCCCC1 (stereo not drawn)	-0.35
Cc1ccc2cccc(NC(=O)c3ccc(-c4cccc(Cl)c4)o3)c2n1	-1.57
Cc1nn(Cc2ccccc2)c(C)c1NC(=O)c1cc(C(C)C)on1	-1.49
Cc1nc(C(=O)N2CCC(c3nc(N)n[nH]3)CC2)c(C)s1	0.69
Cc1ccc(-n2c(=O)c3ccc(C(=O)NCc4ccco4)cc3n(CC(=O)Nc3ccccc3C(F)(F)F)c2=O)cc1	0.03
CCn1cc(C(=O)NCCCOC)c(=O)c2cc(S(=O)(=O)N3CCCC3)ccc21	-0.14
CCOc1ccccc1NC(=O)CSc1nc(-c2cccs2)cc(C(F)(F)F)n1	-0.57
NC(=O)c1cccnc1N1CCC(CO)(CCCc2ccccc2)CC1	-0.81
CCOc1ccc(NC(=O)CSc2nc(-c3ccc(F)cc3)cc(C(F)(F)F)c2C#N)cc1	-0.12
O=C(NCc1noc(C2CC2)n1)c1sc2cccc(F)c2c1Cl	-0.69
CC(C)c1nccn1C(C)C(=O)NCCOc1cccc(C(=O)O)c1 (stereo not drawn)	-1.69
CCCn1ncnc1C(C)NC(=O)Nc1ccc(F)c(C(=O)NC)c1 (stereo not drawn)	-1.44
CCOC(=O)c1cc(NC(=O)c2ccc(F)cc2)c(=O)n2c1oc1ccccc12	-2.36
O=C(C1CCC1)N1CCCn2nc(CNc3ncnc4nc[nH]c34)cc2C1	-0.1
Cc1ccc(Cl)cc1N(C)C(=O)c1cc2c(Cl)nc3ccccc3c2s1	-0.09
O=c1c2sccc2n(Cc2cc(=O)n3cc(Cl)ccc3n2)c(=O)n1-c1ccccc1	0.21
COc1ccc(N(C(=O)c2ccc(OC)c(OC)c2)S(=O)(=O)c2ccc(Cl)cc2)cc1	1.36
COc1cc2ccccc2cc1C(=O)Nc1cccc(-c2nc3ccccc3o2)c1	-0.42
O=C(Nc1ccc(Cl)c(-c2nc3cc(Cl)ccc3o2)c1)c1cc([N+](=O)[O-])ccc1N1CCOCC1	-1.56
Cc1cc(C)c2c(CC(=O)Nc3ccccc3C(F)(F)F)coc2c1	-0.33
O=C(Nc1cccc(-c2nc3cc(Cl)ccc3o2)c1)c1cc([N+](=O)[O-])ccc1N1CCOCC1	-3.83

5 records picked at random from those above:
SMILES	fixLJ activator
CCOC(=O)c1cc(NC(=O)c2ccc(F)cc2)c(=O)n2c1oc1ccccc12	-2.36
CN(Cc1ccc(C(C)(C)C)cc1)Cc1cccc2ccccc12	-0.62
COCc1ccc(C(=O)N2C[C@H]3COCC[C@@]3(O)[C@@H]3COCC[C@H]32)s1	1.21
CCOC(=O)c1cc(NC(=O)c2ccc(OC)cc2)c(=O)n2c1oc1ccc(Cl)cc12	-1.48
Cc1ccc(-n2c(=O)c3ccc(C(=O)NCc4ccco4)cc3n(CC(=O)Nc3ccccc3C(F)(F)F)c2=O)cc1	0.03

Additional results:
SMILES	fixLJ activator
CC(=O)Nc1ccc(NC(=O)C(Cc2ccccc2)NS(=O)(=O)c2ccc3c(c2)oc(=O)n3C)cc1 (stereo not drawn)	1.44
CCOC(=O)CSc1nc2ccccc2c(=O)n1-c1cccc(C)c1	-0.94
Cc1ccc(C)c(NC(=O)CCNC(=O)c2c[nH]c(C)cc2=O)c1	0.13
CCOc1ccccc1NC(=O)C(CC(C)C)NS(=O)(=O)c1ccc2c(c1)CCN2C(C)=O (stereo not drawn)	-1.84
Cc1cc(NS(=O)(=O)c2ccc(NC(=O)COc3ccc(Br)cc3C)cc2)no1	-2.18
CSc1ccc(-c2nc(Cn3cnc(C4CC4)n3)c(C)o2)cc1	-0.65
Cc1ccc(Nc2nnc(-c3ccc(C)c(S(=O)(=O)NCc4nc5ccccc5[nH]4)c3)c3ccccc23)cc1	-0.94
C#CCN(C)Cc1ccccc1	-1.38
CCCCN1CCN(Cc2nnc(C3CC(NC(C)=O)C3)n2C)CC1 (stereo not drawn)	-0.1
COc1cc(-c2nc3ccc(Cl)cn3c2Nc2ccc3c(c2)OCO3)ccc1O	-1.04
Cc1ccc2nc(C(=O)NC3CCN(c4cnccn4)CC3)cn2c1	0.74
COc1ccc(NC(=O)Cn2c(SCc3cccc(Cl)c3)nc3ccncc32)c(OC)c1OC	-0.52
CCCC1=Nc2cc(C(=O)NCCc3ccccc3)ccc2Sc2ccc(C)cc21	1.11
Cc1ccc(-n2ncc3c(Nc4cccc(C(=O)O)c4)ncnc32)cc1	-1.89
Cc1ccc(C(=O)c2cn(Cc3ccccc3F)c3cc4c(cc3c2=O)OCCO4)cc1	-0.83
CCN1CCC(N(CCc2ccccn2)C(=O)NCc2nc(C)cs2)CC1	-1.72
CC(=O)c1ccc(NC(=O)c2ccc3c(c2)N(Cc2cccc(Cl)c2)C(=O)c2ccccc2S3(=O)=O)cc1	0.47
CCOC(=O)Cn1c(=O)oc2cc(S(=O)(=O)N3CCC(C(=O)OCC)CC3)ccc21	-1.56
CCc1nc(CN(C)C(=O)NCc2nc(CSC)no2)no1	-1
CCNS(=O)(=O)c1ccc(NC(=O)CSc2nc(-c3ccco3)cc(C(F)(F)F)n2)cc1	-1.76
COc1ccc(-c2cc(C(F)(F)F)n3nc(C(=O)Nc4ccccc4SC)cc3n2)cc1OC	0.23
Cc1ccc(NC(=O)c2cc(-c3cccs3)nc3ccccc23)c(C)c1	-0.42
CO[C@@]12CCC(Oc3ccccn3)CC1N(C(=O)c1ccccc1)CC2 (stereo partly drawn)	-3.71
CCOc1ccc(CCNC(=O)Cn2ncc3c(=O)oc4ccc(C)cc4c32)cc1	-1.35

Two neighbouring compounds already listed, for reference:
SMILES	fixLJ activator
CO[C@@]12CCC(Oc3ccccn3)CC1N(C(=O)c1ccccc1)CC2 (stereo partly drawn)	-3.71
CCOc1ccc(CCNC(=O)Cn2ncc3c(=O)oc4ccc(C)cc4c32)cc1	-1.35

The list continues.
SMILES	fixLJ activator
CC(=O)c1cccc(NC(=O)CCS(=O)(=O)c2ccc3c(c2)n(C)c(=O)c(=O)n3C)c1	-1.15
CCCN(CCC)C(=O)Cn1c(=O)n(CCCCCC(=O)Nc2ccccc2)c(=O)c2sccc21	-0.82
Cc1ccc2nc(-c3ccc(NC(=O)COc4ccccc4C(C)(C)C)cc3)sc2c1	-0.87
COc1ccc(OC)c(C2NC(=O)NC(C)=C2C(=O)Nc2ccc(F)cc2)c1 (stereo not drawn)	-1.82
